# Mtb growth – M. tuberculosis H37Rv growth inhibitors, H37Rv strain (AID 1626); M. tuberculosis H37Rv growth inhibition; higher % means a stronger effect; inhibition, % at 10 µM, or IC50 in µM where a hit was titrated; actives 0.95% (n = 220,000);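 active means confirmed in a dose series; inconclusive means inhibition above 80% but not taken into the dose series; inactive means below 80% or under 30% at every dose of the series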;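 further: bacteria incubated seven days before Alamar blue readout; 0% = bacteria only wells and 100% = bacteria with antibiotic wells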
# Mtb bLac sens – beta-lactam sensitization of Mtb H37Rv, H37Rv | M. tuberculosis H37Rv growth with meropenem, percent inhibition; hits of this screen are not shown here | inhibition, % at 25 µM | actives 0.27% (n = 330,000) | AID 434955, 2010;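 active means about 74% or more and at least 40 points above the plate without the antibiotic, then above 30% in a dose series; inconclusive means first-round hits that could not be retested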;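 further: growth measured after seven days incubation then overnight dye step; 0% = bacteria only wells and 100% = bacteria with antibiotic; twin plates without the antibiotic show which effects depend on it; some results filed as inactive read as strong as hits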
# RecA splice inh – Mtb RecA intein splicing inhibitors, primary screen, biochemical, fluorescence, HTS | cell-free RecA intein splicing | inhibition, %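 (about 9 µM by stock and volumes)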 | Protein RecA (Mycobacterium tuberculosis (strain ATCC 25618 / H37Rv)), P9WHJ3 | actives 0.75% (n = 290,000); in the data active means inhibition above about 30%; inconclusive means no clear call, values can overlap the other calls;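 further: 0% = vehicle wells and 100% = reference inhibitor control wells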
# Target sequence (P9WHJ3 whole entry, looked up, canonical isoform): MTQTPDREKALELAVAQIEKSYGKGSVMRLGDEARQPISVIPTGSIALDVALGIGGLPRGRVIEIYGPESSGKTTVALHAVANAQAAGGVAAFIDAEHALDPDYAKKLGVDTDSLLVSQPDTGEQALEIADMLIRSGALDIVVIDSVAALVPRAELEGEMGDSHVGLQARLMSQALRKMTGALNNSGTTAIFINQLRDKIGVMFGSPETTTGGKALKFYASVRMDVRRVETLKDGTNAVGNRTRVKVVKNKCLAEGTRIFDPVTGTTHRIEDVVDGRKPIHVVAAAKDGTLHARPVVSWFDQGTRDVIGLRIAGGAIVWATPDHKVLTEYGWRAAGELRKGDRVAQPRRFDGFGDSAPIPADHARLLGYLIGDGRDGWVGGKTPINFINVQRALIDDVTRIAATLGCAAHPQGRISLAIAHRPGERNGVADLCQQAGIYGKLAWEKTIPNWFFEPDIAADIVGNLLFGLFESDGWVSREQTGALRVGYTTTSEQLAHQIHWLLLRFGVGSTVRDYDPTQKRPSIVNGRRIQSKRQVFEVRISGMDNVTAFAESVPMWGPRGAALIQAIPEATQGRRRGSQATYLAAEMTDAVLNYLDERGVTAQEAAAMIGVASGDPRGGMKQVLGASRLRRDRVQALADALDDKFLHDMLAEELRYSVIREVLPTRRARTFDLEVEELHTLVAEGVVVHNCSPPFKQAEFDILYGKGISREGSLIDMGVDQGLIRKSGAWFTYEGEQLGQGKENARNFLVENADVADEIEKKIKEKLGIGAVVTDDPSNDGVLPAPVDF
# Arbovirus inh – antivirals against arbovirus infection, primary screen, cell-based, full library, 10K replicate subset. actives 0.37% (n = 200,000). inhibition, % at 10 µM. arbovirus infection cell-based antiviral screen;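 active means inhibition from about 30%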;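 further: bluetongue infection of BSR cells; cell survival read as ATP light after 72 h; 0% = infected wells without compound and 100% = uninfected wells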
# YopH inh – YopH tyrosine phosphatase inhibitors, primary screen, biochemical, fluorescence Ex485/Em525; inhibition, %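 (about 10 µM by stock and volumes)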; AID 898, 2007; actives 0.16% (n = 140,000); YopH tyrosine phosphatase [Yersinia enterocolitica];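 active means inhibition of 50% or more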;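 further: controls were vehicle for no effect and minimum signal wells for full effect; inactives centre near -20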
# Arbovirus inh repeat – also measured in Arbovirus inh; calls as there; inhibition, %; measured here: 10K subset replicate screen; many hits read low in the repeat;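 first of two repeat runs on a subset; 0% = infected and 100% = uninfected wells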
# * hit, by the source's call; ? = inconclusive; . = not tested or not shown. An excerpt. The share of hits here may be higher or lower than overall.
SMILES,Mtb growth,Mtb bLac sens,RecA splice inh,Arbovirus inh,YopH inh,others
COc1ccc2[nH]c(CN3CCN(CC(C)C)C(CCO)C3)c(C)c2c1 (centres undefined),-1%,-3,-0.3,2,.,
O=C1NCCCC1C(=O)N1CCN(C(=O)c2ccco2)CC1 (centres undefined),-6%,1,1.1,4,-34,Arbovirus inh repeat=2
O=C(CN1C(=O)c2ccccc2C1=O)Nc1ccccc1,.,-3,-2.5,.,.,
CNC(C)C#Cc1ccc2c(=O)c3cc(C)c(C)cc3oc2c1 (centres undefined),-1%,5,14,.,.,
CC(C)CC(=O)/C=C/n1c(=S)oc2ccccc21,?,98,2.5,-31,-37,
C/C(=N/NC(=O)CCc1c(C)n[nH]c1C)c1cccc([N+](=O)[O-])c1,2%,5,-2.7,.,.,
C/C(=N\NC(=S)Nc1ccc(C)c(C)c1)c1ccc(N2CCOCC2)cc1,?,2,1.2,-8,-24,
COc1ccc(C(C)=O)cc1CN1C(=O)NC2(CCCC2)C1=O,-1%,-4,1.5,2,.,
CN(C)CCOC1c2ccccc2-c2ccccc21,.,-3,-0.3,.,.,
Cn1c(O)c(/C=N/N2CCOCC2)c(=O)[nH]c1=S,0%,-14,4.6,.,.,
Cc1ccc(NC(=O)CN2C(=O)N/C(=C/c3ccccc3OCc3cccc(C(=O)O)c3)C2=O)cc1,.,-1,0.4,.,.,
Cc1cc(NC(=O)COc2cccc(Oc3ccccc3)c2)no1,2%,-4,-0.7,-19,-6,
COCCCNC(=O)[C@H]1N2C(=O)c3ccccc3C2SC1(C)C (some centres undefined),.,0,3.3,.,.,
O=C(C[n+]1ccccc1)N/N=C/c1cccs1,-8%,-1,1.1,3,.,
COC(=O)N1C(c2ccccc2)C1c1ccccc1 (centres undefined),-1%,-1,-0.5,-9,.,
O=C(CSc1nc2ccccc2c(=O)n1Cc1ccco1)N1CCCCCC1,-10%,3,6.2,3,-46,
CC(=O)c1nc(-c2ccccc2)sc1C,-4%,0,-0.6,3,.,
COc1ccc(Br)c(C(=O)Nc2cccc(Cl)c2Cl)c1,6%,47,1.8,0,-35,
CC(NC(=O)NC1CCCCC1)c1ccccc1 (centres undefined),2%,-2,0.0,5,-34,
CCOC(=O)N1CCC(N2C(=O)c3ccccc3C2Nc2cc(C)cc(C)c2)CC1 (centres undefined),-1%,-2,2.6,.,.,
CC(NC(=O)CCCC1CCCCC1)c1ccc(S(N)(=O)=O)cc1 (centres undefined),.,-7,-1.2,.,.,
O=C(NCc1ccccc1)NC(=O)c1ccccc1F,.,-2,-3.5,.,.,
Cc1cc(Br)ccc1NC(=O)CNC(=O)CN1C(=O)NC2(CCCCCC2)C1=O,-3%,-6,-0.9,3,-5,
CCOC(=O)N1CCN(c2c(NCc3ccccc3OC)c(=O)c2=O)CC1,-4%,-1,-0.4,9,-40,
COc1ccccc1CN(C)CC(=O)NC1CCCc2ccccc21 (centres undefined),7%,5,2.3,-8,.,
COc1cc(C(=O)NCCC(=O)NC2CCCc3ccccc32)cc(OC)c1OC (centres undefined),.,-3,0.9,.,.,
CC(C)CN1C(=O)C(=O)N(CC(=O)N2CCN(c3ccccc3)CC2)C1=O,.,-11,0.6,.,.,
O=C(Nc1ccncc1)c1cc(S(=O)(=O)N2CCCCC2)ccc1Cl,.,-12,6.4,.,.,
O=C(NCCCN1CCCC1=O)c1ccc(OCc2ccccc2)cc1,1%,1,-5.4,-1,3,
C=CCOc1ccc(/C=C/C(=O)OCC(=O)NC2CCCCCC2)cc1,.,59,0.3,.,.,
CC(C)C1=Nc2cccc3cccc(c23)N1,.,6,-8.7,-1,-75,
CCNc1ccc(Br)cc(C(=O)/C=C/c2ccc3c(c2)OCO3)c1=O,1%,21,4.2,13,-6,
Cc1ccc(C(=O)Nc2nnc(C3CCCCC3)s2)o1,-2%,31,1.5,-4,-1,
Cc1cccc2cc(CN(CCN(C)C)C(=S)Nc3ccccc3)c(=O)[nH]c12,8%,3,-2.6,21,-12,
CCC(=O)N1CCc2cc(S(=O)(=O)NCCC(=O)N3CCN(c4ccccn4)CC3)ccc21,-6%,6,.,1,0,
CC(C)(C)NC(=O)C(c1ccccn1)N(C(=O)c1ccc2c(c1)OCCO2)C1CCCC1 (centres undefined),-7%,8,-1.0,4,-26,
CCOC(=O)c1[nH]c2ccc(OC)cc2c1NC(=S)N1CCN(c2cccc(C)c2C)CC1,3%,-1,1.4,7,-23,
O=C(CSc1nc2ccccc2n1S(=O)(=O)c1cccc([N+](=O)[O-])c1)NCc1cccs1,-4%,5,-2.5,-3,-2,
O=C(Nc1ccccc1-c1ccccc1)C1CCC1,-7%,-8,4.0,-11,.,
O=C(NCCSCc1c(F)cccc1Cl)c1ccc(CN2CCOCC2)cc1,1%,.,-1.3,-4,-13,
O=C(Nc1cc(C(F)(F)F)cc(C(F)(F)F)c1)c1ccc(Cn2cc(C(F)(F)F)ccc2=O)cc1,-2%,-18,-1.0,14,-21,
CCCn1c(-c2cc(OC)c(OC)c(OC)c2)nc2c1c(=O)[nH]c(=O)n2Cc1ccccc1,.,3,5.3,.,.,
CN(C)C=Nc1c(Br)cc(Br)c2nonc12,4%,5,-7.4,-5,-15,
CC(=O)/C(=C/Nc1ccc(Oc2ccccc2)cc1)c1ccccc1,?,87,5.6,12,-24,
CCn1nc(C)c(/C=N/NC(=O)c2nc3nc(C)cc(C)n3n2)c1C,-8%,-4,3.5,.,.,
Cc1cccc(-n2ncc3c2CCCC3NC(=O)CCN2CCCO2)c1C (centres undefined),.,-3,-4.6,.,.,
CC[C@@]12C(=O)N(c3cccc(F)c3)C(=O)N1[C@H](c1ccc(Cl)cc1)[C@@H]1C(=O)N(C3CCCCC3)C(=O)[C@@H]12,.,0,-1.8,.,.,
O=C1/C(=C/c2ccccc2)SC(=S)N1CCCC(=O)N1CCCCC1CCO (centres undefined),.,7,5.9,.,.,
Cc1cc(C(=O)CSc2nn3c(=O)c(C(C)(C)C)nnc3s2)c(C)n1C,-3%,2,-1.2,3,.,
C/C(=N\O)C(C)(C)Nc1ccc(Br)cc1,-3%,-7,0.1,.,.,
O=C(N[C@@H](Cc1ccc(O)cc1)C(=O)O)c1cccnc1,-3%,11,-0.5,2,.,
O=C(Nc1ccc2c(c1)OCO2)c1noc2c1CCCC2,.,6,-3.2,.,.,
CCCn1c(=O)c2sccc2n2c(CCCC(=O)NCC3CCCO3)nnc12 (centres undefined),.,-4,0.7,.,.,
Cc1ccc(N2C(=O)CC(SCC(=O)Nc3ccc(S(N)(=O)=O)cc3)C2=O)cc1 (centres undefined),-6%,-2,-0.2,0,.,
Cc1cccc(NC(=O)NC2CC(=O)N(c3ccc4c(c3)OCCO4)C2)n1 (centres undefined),3%,1,1.4,21,.,
Cc1cc(S(=O)(=O)N2CCCC2)ccc1OCC(=O)NCc1ccccc1,.,7,3.0,.,.,
COC(CNC(=O)CNC(=S)N(Cc1ccccc1)Cc1cccnc1)OC,2%,-12,-1.2,15,.,
O=C1NC(=S)S/C1=C\c1ccc(SCc2ccco2)o1,-7%,1,.,18,-18,
O=S(=O)(c1ccc(S(=O)(=O)N2CCCC2)cc1)N1CCCCC1,.,-3,-4.1,.,.,
CCOc1ccc(-n2ccnc2)nn1,1%,0,-4.4,.,.,

# Fetched by structure from the entries so far, five records:
SMILES,Mtb growth,Mtb bLac sens,RecA splice inh,Arbovirus inh,YopH inh,others
O=S(=O)(c1ccc(S(=O)(=O)N2CCCC2)cc1)N1CCCCC1,.,-3,-4.1,.,.,
CCCn1c(=O)c2sccc2n2c(CCCC(=O)NCC3CCCO3)nnc12 (centres undefined),.,-4,0.7,.,.,
Cc1cccc(NC(=O)NC2CC(=O)N(c3ccc4c(c3)OCCO4)C2)n1 (centres undefined),3%,1,1.4,21,.,
O=C(N[C@@H](Cc1ccc(O)cc1)C(=O)O)c1cccnc1,-3%,11,-0.5,2,.,
CCOc1ccc(-n2ccnc2)nn1,1%,0,-4.4,.,.,

# (listing goes on)
SMILES,Mtb growth,Mtb bLac sens,RecA splice inh,Arbovirus inh,YopH inh,others
Cc1ccc(SCC(=O)Nc2ccc(-c3nc4ccccc4[nH]3)cc2)cc1,-4%,0,0.6,-5,-10,
CCOC(=O)c1cc(CC)sc1NC(=O)CSc1nc2ccccc2c(=O)n1Cc1ccco1,6%,-2,2.4,-22,-27,
CC(=O)Nc1ccc(C(=O)CSc2nc3ccc(C)cc3[nH]2)cc1,-5%,-4,2.1,7,-39,
O=[N+]([O-])c1ccc(NC2CCN(Cc3ccccc3)CC2)c([N+](=O)[O-])c1,11%,-2,2.5,6,.,
O=C(/C=C/c1ccccc1)NC(NC(=S)Nc1cccc(Cl)c1)C(Cl)(Cl)Cl (centres undefined),-3%,0,5.7,-26,-28,
COc1cccc(CNC(=O)CSc2nc3c(oc4ccccc43)c(=O)n2CC2CCCO2)c1 (centres undefined),.,2,3.5,.,.,
CCOC(=O)c1cnc2c(C)cc(C)cc2c1Nc1ccc(S(=O)(=O)Nc2ncccn2)cc1,-2%,2,-0.3,18,-15,
CC(C)CN1C(=S)SC(C)(C)C1n1oc(=O)n(-c2ccccc2)c1=O (centres undefined),-2%,-2,6.9,1,-22,
CNC(=S)NNC(=O)c1ccc(N(C)C)cc1,3%,-3,-6.6,.,.,
Cc1ccc(CNC(=O)CCCc2c[nH]c3ccccc23)cc1,.,-1,3.3,.,.,
O=C(NCCc1ccccc1)c1cc2ccccc2oc1=O,.,9,-3.6,.,.,
CCOC(=O)N1CCN(c2cc(=O)n(-c3ccc(OCC)cc3)c(=O)[nH]2)CC1,12%,?,1.6,7,-34,
Cc1c(C(=O)N2CCC(C)CC2)oc2ccc(S(=O)(=O)N3CCC4(CC3)OCCO4)cc12,1%,-2,-0.2,0,-13,
CCOc1cccc(SCc2noc(C(=O)NCC3CCCO3)c2C(=O)O)c1 (centres undefined),-23%,-1,-5.6,6,-5,
C=CCN(CC=C)CCOc1ccc(OC(C)C)cc1,7%,6,-2.6,-3,.,
Cc1ccc(N2CCN(S(=O)(=O)N(C)C)CC2)cc1Cl,-13%,-6,6.5,4,0,
CNS(=O)(=O)c1ccc(C)c(S(=O)(=O)NC)c1,-7%,-4,1.0,0,-19,
Cc1ccc(-c2cc(C(=O)N/N=C/c3cccnc3)n[nH]2)o1,-4%,7,-2.8,0,-14,
CC1CCCCC1NC(=O)CSc1nnc(CNC(=O)c2ccccc2)n1C (centres undefined),2%,-4,-2.5,2,.,
COc1cc(S(=O)(=O)N2CCOCC2)cc(C(=O)c2nccn2C)c1OC,2%,6,0.9,9,-36,
CCCc1ccc(OCC(=O)NNC(=O)c2cccnc2)cc1,6%,12,-1.2,-3,.,
CCOC(=O)N1CCN(C(=O)CCCn2nnnc2CN2CCC(C)CC2)CC1,.,-7,-0.4,.,.,
O=C(O)C1C2C=CC(O2)C1C(=O)NCc1ccc2c(c1)OCO2 (centres undefined),-7%,-5,-0.9,-4,-26,
CC(=C/c1ccccc1)/C=N/NC(=O)c1cccs1,11%,8,5.9,.,.,

# In the list so far, these have a nitro group on carbon.
SMILES,Mtb growth,Mtb bLac sens,RecA splice inh,Arbovirus inh,YopH inh,others
C/C(=N/NC(=O)CCc1c(C)n[nH]c1C)c1cccc([N+](=O)[O-])c1,2%,5,-2.7,.,.,
O=C(CSc1nc2ccccc2n1S(=O)(=O)c1cccc([N+](=O)[O-])c1)NCc1cccs1,-4%,5,-2.5,-3,-2,
O=[N+]([O-])c1ccc(NC2CCN(Cc3ccccc3)CC2)c([N+](=O)[O-])c1,11%,-2,2.5,6,.,

# (next part)
SMILES,Mtb growth,Mtb bLac sens,RecA splice inh,Arbovirus inh,YopH inh,others
COc1cccc2c1O/C(=N\O)C(C(=O)Nc1ccc(C)cc1)C2 (centres undefined),.,-10,-2.9,.,.,
CCOc1cc2c(cc1/C=C/c1noc(C)c1[N+](=O)[O-])OC(C)C2 (centres undefined),.,-3,-3.6,.,.,
Cc1c(C#N)c2ccccc2n1CCOc1ccccc1F,-1%,4,-0.3,6,-27,Arbovirus inh repeat=6
Cc1ccc(C2=NN(CCC(=O)NC3CCCC3)C(=O)CC2)cc1,.,-3,0.5,.,.,
COc1ccc(NC(=O)N2CCCC(c3ccccc3)C2)cc1 (centres undefined),.,5,0.0,.,.,
Cc1ccc(C)c(C2=NNC(=NCc3ccccc3)SC2)c1,0%,.,6.5,-16,.,
CCN1CCN(C(=O)c2cccc(OC3CCN(S(C)(=O)=O)CC3)c2)[C@@H](C)C1=O,.,-27,0.6,.,.,
CCn1c(-c2c[nH]c3ccccc23)n[nH]c1=S,2%,0,-0.7,-1,-31,
